CDC25B-CDK2 inh: primary biochemical HTRF screen for blockers of M-phase inducer phosphatase 2 binding to CDK2/cyclin A | AID 1259370, 2018 | 94,000 compounds, 0.72% hits | HTRF CDC25B-CDK2/CyclinA binding, anti-His/anti-Flag; hits give high values | z-score (concentration not given with the values) | P30305+P24941;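 further: score is relative to mean and SD of negative controls; strong numbers were not always called active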
TAR Tat displ: TAR RNA-Tat peptide displacers, HIV-1, primary screen, biochemical, FRET, FAM/TAMRA-labeled Tat. HIV-1 TAR RNA, Tat peptide displacement FRET; hits give high values. z-score (test concentration not listed). 100,000 compounds, 0.6% hits;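 further: score is relative to mean and SD of negative controls; some compounds called inactive have numbers as strong as hits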
Numbers without * were called inactive; . = not tested or not shown.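 How the source made its calls: active means z-score from 3 up in half or more of its runs; inactive means the rest.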

SMILES	CDC25B-CDK2 inh	TAR Tat displ
Cc1ccc(C)c(NS(=O)(=O)c2ccc3c4c(cccc24)C(=O)N3)c1	-0.76	2
CC1CC(C)(C)OC(C2CC=CCC2)O1 (stereo unspecified)	-1.9	.
CCOC(=O)C1=C(C)NC2=C(C(=O)CC(C)(C)C2)C1c1ccccc1OCC (stereo unspecified)	-0.13	1.4
Cc1nn(C(C)C(=O)N2CCCCCC2)c(=O)c2cc3sccc3n12 (stereo unspecified)	-0.38	.
O=C(CSCc1nc2cccnc2n1C1CCCCC1)N1CCCCC1	.	-2.7
CC(=O)CC(=O)CCC(=O)O	.	0.67
Nc1nc(Sc2cc(-n3cccc3)c(Cl)cc2[N+](=O)[O-])n[nH]1	-0.63	.
CC1(C)COC(N(C(=O)NC2CCCCC2)c2cccc(Cl)c2)=N1	1.4	0.56
CCn1c(SCC(=O)OC)nc2sc3c(c2c1=O)CCCC3	-0.95	.
O=C(COc1ccccc1)OCc1cc(=O)n2nc(-c3cccs3)sc2n1	.	-0.58
CSc1nc(NCCOC(=O)c2ccccc2)c(C#N)c(-c2ccccc2)n1	-0.52	0.85
CC(=O)Nc1ccc(S(=O)(=O)N2c3ccccc3Sc3ccccc32)cc1	-0.42	.
CCCCCCn1c(C)nc2c(sc3nc4c(cc32)COC(C)(C)C4)c1=O	-0.65	-0.9
NC(=O)c1c(-c2ccc(Cl)cc2)noc1N	-1.9	0.22
CSc1cccc(NC(=O)CCS(=O)(=O)c2ccc3c(c2)CCN3C(=O)C2CC2)c1	.	0.3
COc1cccc(-c2nnc(-c3cc([N+](=O)[O-])ccc3Oc3cncc(Cl)c3)o2)c1	-1.3	.
CC(O)CSc1nc2c(c(=O)n(C)c(=O)n2C)n1Cc1ccccc1 (stereo unspecified)	-0.87	-0.94
Cc1ccccc1NC(=O)c1cc(-c2ccccc2)nc2c(Cl)cccc12	-4.9	.
CCN(Cc1ccccc1)c1ncnc2c1cnn2-c1cccc(Cl)c1	.	0.15
COc1ccc(OCC(=O)Oc2ccc(-n3cnnn3)cc2)cc1	-1.4	-1

A different layout for part of the listing above:
SMILES,CDC25B-CDK2 inh,TAR Tat displ
Cc1ccc(C)c(NS(=O)(=O)c2ccc3c4c(cccc24)C(=O)N3)c1,-0.76,2
CC(O)CSc1nc2c(c(=O)n(C)c(=O)n2C)n1Cc1ccccc1 (stereo unspecified),-0.87,-0.94
O=C(CSCc1nc2cccnc2n1C1CCCCC1)N1CCCCC1,.,-2.7
Nc1nc(Sc2cc(-n3cccc3)c(Cl)cc2[N+](=O)[O-])n[nH]1,-0.63,.
Cc1nn(C(C)C(=O)N2CCCCCC2)c(=O)c2cc3sccc3n12 (stereo unspecified),-0.38,.

Going on with the list.
SMILES	CDC25B-CDK2 inh	TAR Tat displ
CCc1ccc(Oc2c(C(F)(F)F)oc3c(CN4CCN(CC)CC4)c(O)ccc3c2=O)cc1	-0.73	0.47
CC(C)(C)c1ccc(-c2nnc(NC(=O)c3cccs3)s2)cc1	-4.8	2.2
O=C(c1cccc(Br)c1)N1CCN(C2=NS(=O)(=O)c3ccccc32)CC1	-1	.
O=C(O)c1ccc(CNCc2cccc(Br)c2)s1	.	1.9
COc1cc(OC)c(NS(=O)(=O)c2c(C)[nH]c(=O)[nH]c2=O)cc1Cl	.	1.5
COC(=O)C1=C(C)NC(=S)NC1c1ccc(F)cc1 (stereo unspecified)	-0.31	.
CCOC(=O)CSc1nnnn1-c1ccc(C(=O)O)cc1	-2.6	-0.2
O=C(Nc1ccc(F)cc1F)N1CC=C(c2c[nH]c3ccccc23)CC1	.	-6.1
O=C(Nc1nnc2n1CCCS2)c1ccc(Cl)cc1	.	0.68
O=C(NCc1ccccn1)c1cccs1	-0.64	1.3
CC1=C(C(=O)OCCSc2ccccc2)C(c2ccccc2Cl)NC(=O)N1 (stereo unspecified)	0.11	.
CCCC(=O)N1c2ccccc2C(Nc2ccccc2)CC1C (stereo unspecified)	1.1	.
CCOc1ccc2c(c1)NC(c1ccc(C)o1)=NC(c1cccs1)=N2	-0.9	0.26
CC(=O)N(C)c1cccnc1	-2.1	.
CCc1ccc(NS(=O)(=O)c2ccc(-c3n[nH]c(C)c3C)s2)cc1	.	1.5
Cc1ccccc1CN1CCC(N2CCN(CCO)CC2)CC1	2.2	2.1
O=C(O)/C=C/C(=O)NNC(=O)c1ccccc1[N+](=O)[O-]	-0.6	.
O=C(NCCC1=CCCCC1)C1CCCN(c2nn3c(=O)c4c(nc3s2)CCCC4)C1 (stereo unspecified)	.	2.5
CCCc1cc(=O)n2nc(N3CCC(C(=O)NCCc4ccco4)CC3)sc2n1	-1.5	3.2
CCNC(=O)C(=O)NCC1CCCO1 (stereo unspecified)	1	2.3
CCC1Oc2ccccc2N(CC(=O)NCC2CCCO2)C1=O (stereo unspecified)	.	0.37
O=C(ON=C1CCCCC1)c1ccc(Cl)cc1	-0.2	.
Cc1nc2sc(C(c3ccccc3)N3CCN(c4ccc(F)cc4)CC3)c(O)n2n1 (stereo unspecified)	0.48	.
CN1CCN(c2nc(Nc3ccccc3)c3cnn(C)c3n2)CC1	.	0.34
O=C(Nc1nnc2n1CCS2)c1ccc(Cl)cc1	.	0.73
Cc1ncc(CO)c(CNc2ccccc2Cl)c1O	.	0.53
Fc1ccc(OCc2nnc3n2N=C(c2ccc(Br)cc2)CS3)cc1	-0.18	1.9
Cc1cc(S(=O)(=O)[C@H]2CS(=O)(=O)C[C@@H]2N2CCC(C(N)=O)CC2)ccc1F	-2.1	1
Fc1ccc(Nc2ncnc3c2oc2ccccc23)cc1	-1.5	-0.19
O=C(CSc1ccc(-c2cccnc2)nn1)Nc1ccc(F)cc1F	.	0.58
CC(=O)N1N=C(c2cccc3ccccc23)OC1c1cc(C)nc2ccccc12 (stereo unspecified)	.	0.06
Cc1nnsc1C(=O)NCCc1c[nH]c2ccccc12	-1.9	.
Cc1ccnc(NC(c2ccc(O)cc2)c2ccc3ccc(C)nc3c2O)c1 (stereo unspecified)	0.92	1.8
O=c1c2c(n3nnnc3n1Cc1ccccc1)-c1ccccc1CC21CCCCC1	-0.04	0.22
Cc1cccc(C)c1N1C(=O)N2CCCN2C1c1ccccc1 (stereo unspecified)	0.65	1.6
Cn1nc(Br)nc1Sc1ccccc1NC(=O)c1cccs1	.	1.2
CSc1nc(N/C=C(\C#N)C(=O)c2cccs2)n2nc(C)cc2n1	-0.94	.
CC(=O)c1ccc(-c2cc(O)cc3sc(=O)oc23)cc1	-2	.
Nc1nc(SCC(=O)Nc2ccccc2)ncc1S(=O)(=O)c1ccccc1	.	2.1
COc1cccc(-c2nnc3n2N=C(c2ccc(F)cc2)CS3)c1	1	.

6 of the compounds above, with values under each structure:
Results follow in this order: CDC25B-CDK2 inh	TAR Tat displ
CCC1Oc2ccccc2N(CC(=O)NCC2CCCO2)C1=O (stereo unspecified)
 : .	0.37
O=C(ON=C1CCCCC1)c1ccc(Cl)cc1
 : -0.2	.
Cc1nc2sc(C(c3ccccc3)N3CCN(c4ccc(F)cc4)CC3)c(O)n2n1 (stereo unspecified)
 : 0.48	.
CN1CCN(c2nc(Nc3ccccc3)c3cnn(C)c3n2)CC1
 : .	0.34
O=C(Nc1nnc2n1CCS2)c1ccc(Cl)cc1
 : .	0.73
Cc1ncc(CO)c(CNc2ccccc2Cl)c1O
 : .	0.53

Going on with the list.
SMILES	CDC25B-CDK2 inh	TAR Tat displ
Cc1ccc(OCC(=O)Nc2ccc(-c3nc4ccccc4s3)c(O)c2)c(C)c1	-11	.
O=C(C1=C(O)C(=O)N(CC2CCCO2)C1c1cccnc1)c1ccco1 (stereo unspecified)	-0.77	1.1
COC1CC(C)(C)Oc2ccc3oc(C(=O)N4CCc5ccccc5C4)c(C)c3c21 (stereo unspecified)	-1.5	-1.3
Cc1ccc(-c2nnc(N3CCOCC3)c3ccccc23)cc1S(N)(=O)=O	-10	0.03
COc1cc2c(cc1OC)C(SC)=NC1(CCCC1)C2	-0.44	.
O=C(Nc1nnc(-c2ccccc2)o1)Nc1ccccc1Cl	1.5	0.67
Cc1ccc(C2C(N)C(=O)N2c2ccc(C)cc2)cc1 (stereo unspecified)	-2.6	1.4
CCOC(=O)C1=C(C)NC2=C(C(=O)C(C(=O)OC)C(C)C2)C1c1ccc(OC(C)=O)c(OCC)c1 (stereo unspecified)	-0.3	0.72
CNC(=O)C1CCCN1c1nnc(N2CCCC2=O)s1 (stereo unspecified)	.	1.4
CCC1C(O)CC(c2ccccc2)NC1c1ccccc1 (stereo unspecified)	-1.5	.
CC(=O)Nc1cccc(-n2nnc(SCC(=O)c3ccc(C)cc3)n2)c1	-0.64	.
CCOC(=O)c1cc(-c2ccc(S(=O)(=O)Nc3cc(Cl)ccc3OC)s2)on1	.	2.1
CN(C1=NS(=O)(=O)c2ccccc21)c1ccc(OC(=O)c2ccccc2F)cc1	-1.5	1.1
COc1ccc(S(=O)(=O)Nc2cc(-c3cn4ccc(C)cc4n3)ccc2C)cc1OC	-0.78	0.43
CC(=O)Nc1ccccc1Sc1ccc([N+](=O)[O-])c(Sc2ccccc2NC(C)=O)n1	-1.3	.
O=C(Nc1ccc(S(=O)(=O)N2CCCC2)cc1)C1c2ccccc2Oc2ccccc21	-1.1	0.59
CC1CC(C)CN(CCCN2C(=O)c3ccc(-c4ccco4)n3CC2(C)C(=O)NC2CCCCC2)C1 (stereo unspecified)	.	0.06
CCc1ccc2nc(NC3=NCN(Cc4ccc(OC)cc4)CN3)nc(C)c2c1	0.29	0.49
Cc1ccc(-n2nc3c(c2NC(=O)c2ccc(Br)o2)CS(=O)(=O)C3)c(C)c1	0.98	.
Cc1cc(-c2ccc(S(=O)(=O)Nc3ccc(C)c(F)c3)s2)n[nH]1	.	-0.45
COCCN1C(=O)c2[nH]nc(-c3ccccc3O)c2C1c1ccccc1 (stereo unspecified)	0.9	1.2
Cc1c(O)cc2c(c1C)O[C@@](C)(CCC[C@H](C)CCC[C@H](C)CCCC(C)C)CC2	.	0.31
Cc1ccc(N2CCN(c3nc4ccccc4c4nnc(C)n34)CC2)c(C)c1	.	1.2
COc1ccc(C)cc1S(=O)(=O)Nc1ccc(-c2ccc(S(C)(=O)=O)nn2)cc1	.	-0.18
Cn1cc(-c2cc3n(n2)CCCN3C(=O)CCC(=O)NCCCN2CCCC2)c2ccccc21	.	0.97
Cc1ccc(C)c(OCc2nc(-c3ccc(Cl)cc3)no2)c1	-2.2	.
CC(C)=CCn1c(N2CCN(C)CC2)nc2c1c(=O)[nH]c(=O)n2C	-0.66	.
Cc1c2cnn(-c3ccccc3)c(=O)c2c(C)n1CCCC(=O)NC1CC1	0.66	-0.67
C=CCN1C(=O)C(=O)/C(=C(\O)c2ccc(Br)cc2)C1c1ccc(OC)cc1 (stereo unspecified)	-1.1	1.5
COc1ccc(CN2C(=O)C(=O)c3cc(Br)cc(C)c32)cc1	-0.52	1.9
Cc1ccccc1CNc1nc(NCCO)nc2c1cnn2C	.	1.1
CC1=CC(=O)N(c2nc(-c3ccc(Cl)cc3)cs2)C1=O	-1.3	.
O=C1c2cccnc2C(=O)N1Cc1ccc(S(=O)(=O)N2CCCC3CCCCC32)s1 (stereo unspecified)	.	0.73
COc1ccc(NC(=O)NCc2c(-n3cccc3)sc3c2CCCC3)cc1OC	0.05	1.8
Cc1ccc(-c2c3c(=O)n(C)c(=O)n(C)c3c3n2C(C)(C)COC3)cc1	-2.1	0.46
CCN(CC)CCCNCC1CCOC(C)(C)C1 (stereo unspecified)	-0.05	1.7
COc1cccc(-c2ccc(-c3noc(-c4ccncc4)n3)c(OC)n2)c1	3.6	0.67
CCOc1ccc(NC(=O)CC2SC(=O)NC2=O)cc1 (stereo unspecified)	-1.4	.
CC1CC(=O)Nc2cc(S(=O)(=O)N(C)Cc3ccco3)ccc2S1 (stereo unspecified)	.	0.29
O=C(Cn1c(=O)[nH]c2ccsc2c1=O)N1CCN(c2ccc(F)cc2)CC1	-0.03	.
CCCc1nn2c(=O)cc(COc3cc(C)ccc3C)nc2s1	0	0.21
CCOC(=O)CCCn1c(=O)c2cccn2c2ccccc21	0.05	-0.26
COc1cc([N+](=O)[O-])c(OC)cc1SCC(=O)NNC(=S)Nc1ccc(F)cc1	0.55	.
Cc1csc2nc(CSc3nc4ccccc4s3)cc(=O)n12	-0.32	-2.2
CCOc1ccc(C(=O)OCc2cc(=O)n3nc(C4CCCCC4)sc3n2)cc1	.	0.08
O=S(=O)(CCN(Cc1ccccc1Cl)S(=O)(=O)c1ccc(F)cc1)N1CCNCC1	.	2.3
CCOC(=O)c1c(CNc2ccncc2)n(C)c2cc(Br)c(OC(C)=O)cc12	0.49	1.5
Clc1ccccc1CNc1nc2ccccc2n2cnnc12	-2.5	1.6
CCOc1ccc(-c2nc(CSc3nc4ccccc4c(=O)[nH]3)c(C)o2)cc1	.	1.9
COc1ccc(-c2cc(N)n[nH]2)c(OC)c1	.	1.7
N/C(=N\NC(=O)c1cccc(C(F)(F)F)c1)c1ccc(C(F)(F)F)cn1	-1.4	.
COc1ccc(Oc2ccc([N+](=O)[O-])cc2)cc1	-1.6	.
C=CCNc1ncnc2c1c(-c1ccccc1)cn2-c1ccc(OC)cc1	-2.6	.
Fc1ccc(COc2ccccc2-c2nnc(-c3ccccc3)o2)cc1	.	-0.03
CC1CCC2C(=O)N(c3cccc(O)c3)C(=O)C2C1 (stereo unspecified)	0.08	-0.56

Quoted at random: 4 compounds from above.
SMILES	CDC25B-CDK2 inh	TAR Tat displ
Cc1ccc(C2C(N)C(=O)N2c2ccc(C)cc2)cc1 (stereo unspecified)	-2.6	1.4
Cc1nc2sc(C(c3ccccc3)N3CCN(c4ccc(F)cc4)CC3)c(O)n2n1 (stereo unspecified)	0.48	.
CC1CCC2C(=O)N(c3cccc(O)c3)C(=O)C2C1 (stereo unspecified)	0.08	-0.56
O=C(ON=C1CCCCC1)c1ccc(Cl)cc1	-0.2	.
